VACV Venus inh – inhibitors of vaccinia virus (Venus reporter); Potency, µM (doses to about 36.5 µM), without a hit: at the top dose activity change, negative = inhibition, usual class: inhibitors; Vaccinia virus Venus reporter expression, fluorescence; AID 720580; 0.46% of 330,000 active; active means well fitted inhibition curve with a large enough effect; inconclusive means small, poorly fitted or top-dose-only effect; inactive means no such curve, though single readings can be large or run the other way; tested in A549 cells; further: nearly all actives have a fitted effect of over 30% in size; inactives centre near -10
VACV mCherry inh – vaccinia inhibition (mCherry reporter). 0.63% of 310,000 active. Potency, µM (series often up to 36.5 µM), for inactives: at the top dose activity change, negative = inhibition, hits mostly inhibitors. Vaccinia virus mCherry reporter infection, fluorescence; about a quarter of the inactives have no number; active = well fitted inhibition curve with a large enough effect; inconclusive = small, poorly fitted or top-dose-only effect; inactive = no such curve, though single readings can be large or run the other way; tested in A549 cells; further: nearly all actives have a fitted effect of over 35% in size; inactives centre near -10
* hit, by the source's call; i = inactive; ? = inconclusive; . = not tested or not shown; & = joins results of further samples; [ ] = dose if it differs, or a comment. On the % scale 0 is the no-effect control and ±100 the full control effect; potency means the concentration at half of the fitted maximal effect.

SMILES	VACV Venus inh	VACV mCherry inh
Cc1ccc(OCCSc2nc3ccccc3n2CC(=O)NC(C)C)cc1	-6.5%	-9.5%
S=C(Nc1cccc(Cl)c1Cl)NC1CCN(Cc2ccccc2)CC1	-26.4%	?
O=C(N/N=C/c1ccc(-c2cccc(C(F)(F)F)c2)o1)c1ccccc1Br	-26.0%	-28.1%
COC(=O)CCCC1=CC2=CC(=O)C(C)(OC(=O)CCc3ccccc3)C(=O)C2=CO1 (stereo not drawn)	32.4%[activator]	-9.1%
O=C(NC1CCCCC1)[C@@H]1CC=C[C@@H]2CCN(C3CCCCC3)C(=O)[C@@H]21	-2.2%&-1.6%	-13.0%
CCOc1cc([C@@H]2C[C@H]3CN(c4ccccc4)C(=O)[C@]34CCCN24)ccc1OC	-4.8%	i
Cc1ccc(NC(=O)CN(C)C(=O)CNC(=O)c2sc3ccccc3c2Cl)cc1	-16.8%	i
O=[S@]1Oc2ccccc2-c2ccccc21	-13.1%	-18.4%
COc1cc(C(=O)Nc2cccc3c2CCCC3)cc(OC)c1OC	-7.1%	-22.2%
CCOC(=O)C1(Cc2cccc(Cl)c2)CCCN(C(=O)C(C)(C)C)C1 (stereo not drawn)	1.2%	-16.8%
Cc1csc(SCC(=O)Nc2ccccc2)n1	-2.5%	i
COc1cccc(C(=O)Nc2ccc(-c3nc4ccc(C)cc4s3)cc2)c1OC	-6.3%	-10.8%
Cc1cc(C(=O)Nc2ccc(-n3c(C)nc4ccccc4c3=O)cc2)ccc1[N+](=O)[O-]	-10.8%	7.0%
O=C(NNc1nc2c(F)cccc2s1)c1ccc(F)cc1	-11.5%	-27.4%
CCC(=O)NC(c1ccc(C)cc1)c1cc([N+](=O)[O-])c2cccnc2c1O (stereo not drawn)	?	11.2µM*
c1ccc(COc2cccc(-c3cc4nc(NCCOc5ccccc5)ccn4n3)c2)cc1	-0.4%	i
Cc1ccc(-n2c(SCC(=O)Nc3cc(S(=O)(=O)N4CCOCC4)ccc3Cl)nc3ccccc3c2=O)cc1	-15.0%	i
CC(=O)c1ccc(Nc2nc(C(N)COCc3ccccc3)cs2)cc1 (stereo not drawn)	-5.7%	-16.3%
Cn1c(=O)c2c(ncn2CC(=O)N2CCN(S(=O)(=O)c3ccccc3)CC2)n(C)c1=O	-4.3%	i
COC(=O)C1=C(c2ccc(F)cc2F)C[C@@H]2CC[C@H]1N2C(=O)NCC1CC1	-14.4%	-4.0%
CCOC(=O)C1=C(N)OC(CCl)=C(C#N)C1c1ccsc1 (stereo not drawn)	-5.9%	-10.8%
CCc1ccc(Nc2nnc(SCC(=O)Nc3cccc(S(=O)(=O)NC4=NCCCCC4)c3)s2)cc1	?	-25.5%
CC1(C)Cc2c(ccc3ccccc23)/C(=C/C#N)N1	-10.0%	-23.8%
O=S1(=O)CCN(CCc2c[nH]c3ccccc23)CC1	-11.7%	-1.8%
O=C(OC1CC2CC1[C@H]1CCCCN1C2=O)N1CCN(c2ccccc2)CC1 (stereo partly drawn)	5.5%	11.9%
COc1cccc(-c2nn(C)c3sc(C(=O)N4CCN(c5ccccn5)CC4)cc23)c1	?	?
CC(C)(C)C1=C(C#N)C(c2ccncc2)C(C#N)=C(N)O1 (stereo not drawn)	-7.6%	i
COC(=O)[C@]1(Cc2ccccc2)N[C@H](CN(C)C(=O)COc2ccccc2)[C@@H]2C(=O)N(Cc3ccccc3)C(=O)[C@@H]21	-25.1%	-16.3%
CCN(Cc1ccccc1)c1ccc(/C=C(\C#N)c2ccccn2)cc1	-13.9%	-13.3%
C(=N\N(Cc1ccccc1)c1ccccc1)/c1ccco1	-10.7%	-20.3%
COc1cc2oc(=O)cc(-c3ccc(-c4ccc(C(F)(F)F)cc4)cc3)c2c(OC)c1OC	-16.2%	-8.7%
Cc1cc(NC(=O)C(=O)NCCN2CCN(S(C)(=O)=O)CC2)ccc1Br	5.4%	-1.5%
COCCn1c(-c2ccc(Cl)cc2)cnc1SCC(=O)NCc1cccs1	-26.4%	-11.7%
COc1ccc(-c2nc(C#N)c(NCCCN3CCOCC3)o2)cc1	-16.4%	-21.7%
O=C(NC1CCN(Cc2ccccc2)CC1)c1cccc(Br)c1	-23.1%	-29.1%
NS(=O)(=O)c1ccc(CNC(=O)c2cc(-c3cccnc3)nc3ccccc23)cc1	-2.2%	-16.6%

One compound at a time, as listed above:
`NS(=O)(=O)c1ccc(CNC(=O)c2cc(-c3cccnc3)nc3ccccc23)cc1` is listed with VACV Venus inh: -2.2%; VACV mCherry inh: -16.6%
`CC(C)(C)C1=C(C#N)C(c2ccncc2)C(C#N)=C(N)O1` (stereo not drawn) is listed with VACV Venus inh: -7.6%; VACV mCherry inh: i

Continued.
SMILES	VACV Venus inh	VACV mCherry inh
CCOC(=O)c1nn(-c2ccc(C)c(C)c2)cc1O	-25.6%	-29.8%
CCOCC(=O)Nc1ccc(S(=O)(=O)NCC2CCCO2)cc1 (stereo not drawn)	-3.8%	i
C[C@@]12C(=O)N(c3cccc(F)c3)C(=O)N1[C@H](c1ccc(Cl)cc1)[C@@H]1C(=O)N(C3CCCCC3)C(=O)[C@@H]12	?	?
O=C(Nc1cccc(Cl)c1)c1csc([C@H]2C[C@H](O)[C@@H](CO)O2)n1	6.7%	8.6%
OC1(c2ccccc2Cl)NN=C2CCCCCN21 (stereo not drawn)	5.8%	i
CSc1ncc(C(=O)Nc2cc(C)cc(C)c2)c(-c2ccccc2)n1	-2.0%	-8.5%
Cc1ccc(S(=O)(=O)/N=c2\scc(C)n2C)cc1	-14.2%	i
N#CCCn1nc(-c2ccccc2)cc1-n1c(C(F)(F)F)nc2ccccc21	-1.3%	-9.4%
O=C(CSc1nnc(-c2ccccc2)o1)NC1CC1	-3.3%	-12.3%
Cc1cc(=O)oc2c3c(cc(OCC(=O)NC4CC4)c12)OC(C)(C)CC3	-1.0%	-1.6%
COCCNS(=O)(=O)c1ccc(Cl)c(C(=O)NC2CCN(Cc3ccccc3)CC2)c1	-5.0%	-6.7%
O=C(CNS(=O)(=O)c1ccc(Br)s1)NCC1COc2ccccc2O1 (stereo not drawn)	-21.8%	?
COc1ccc(-c2cc3c(c4c2ccn4C)C2CCC3O2)cc1OC (stereo not drawn)	-17.5%	7.4%
COc1cccc(C2=NOC(C(=O)NC(C)C)C2)c1 (stereo not drawn)	2.1%	-10.4%
FC(F)(F)c1nc2nncn2c2c1CCCCC2	-8.5%	-10.0%
COc1ccc(NC(=O)c2ccc(S(=O)(=O)N3CCCCC3)cc2)c(OC)c1	11.7%	-10.8%
CCC(=O)Nc1nc2ccccc2n1CCN(C)C	?	?
COc1cc(/C=N\NC(=O)C2C(=O)NCC2c2ccccc2)cc(OC)c1O (stereo not drawn)	7.7%	-26.0%
CCCCC/C=C\C/C=C\CCCCCCCC(N)=O	-7.9%[3.33 µM]	-22.2%[3.33 µM]
Cc1cc(N(C)NC(=S)Nc2ccccc2)nc(C)n1	-6.6%	i
CC(C)CN(C(=O)CSc1nn(-c2ccc(Cl)cc2)c(=S)s1)C1CCS(=O)(=O)C1 (stereo not drawn)	-18.7%	-21.0%
Nc1ccc2nc(-c3ccccc3)c(-c3ccccc3)nc2c1	11.7%	?
CN(Cc1ccc(F)cc1)C(=O)c1cccc(S(=O)(=O)NCc2ccccc2)c1	-14.1%	-20.1%
O=c1oc(-c2ccccc2)cc(Cl)c1Cl	-10.3%	i

Two entries from above, with each value named.
Cc1csc(SCC(=O)Nc2ccccc2)n1
  VACV Venus inh: -2.5%	VACV mCherry inh: i

COc1cccc(C(=O)Nc2ccc(-c3nc4ccc(C)cc4s3)cc2)c1OC
  VACV Venus inh: -6.3%	VACV mCherry inh: -10.8%

(next part)
SMILES	VACV Venus inh	VACV mCherry inh
CCOc1ccc(CN2CCNC(=O)C2CC(=O)NCCC2=CCCCC2)cc1 (stereo not drawn)	-7.3%	-3.0%
COc1ccc(NC(=O)C2=C(C)Nc3nc(SCc4ccccc4)nn3C2c2cc(OC)ccc2OC)cc1 (stereo not drawn)	-12.5%	-7.8%
Cc1cc(C)c2cccc(N)c2n1	-3.5%	-20.3%
Cc1ccc(NC(=O)C2CC(=O)n3c(nc4ccccc43)N2)cc1C (stereo not drawn)	0.4%	-10.9%
CC(C)N(C(=O)N1CCN(c2ccnc3cc(Cl)ccc23)CC1)C(C)C	-8.7%	-0.8%
O=C(NCCCN1CCCC1=O)c1ccc(S(=O)(=O)Nc2cccc(C(F)(F)F)c2)cc1	-17.3%	?
CC(C)NC(=O)c1ccccc1-c1nc(-c2ccccc2Cl)no1	-21.4%	.
COc1cc(NC(=O)CCCNC(=O)c2ccc(Cl)cc2)cc(OC)c1	-16.4%	0.4%
CCOC(=O)c1ccc(NC(=O)CSc2nc3c(c(=O)n2C)SC(C)C3)cc1 (stereo not drawn)	-25.1%	i
CCc1ccc(S(=O)(=O)c2nnn3c2nc(NCCc2ccccc2)c2sccc23)cc1	-25.8%	-28.8%
CC(C)(C)OC(=O)NCCCC[C@H](NC(=O)c1[nH]cnc1C(=O)N[C@@H](Cc1ccccc1)C(=O)OCc1ccccc1)C(=O)OC(C)(C)C	-12.0%	i
Cc1nn(-c2ccccc2)c(C)c1-c1cc(C(=O)N/N=C/c2ccc(O)cc2)[nH]n1	?	?

Three compounds from above, sorted by molecular weight, falling.
SMILES	VACV Venus inh	VACV mCherry inh
O=C(NCCCN1CCCC1=O)c1ccc(S(=O)(=O)Nc2cccc(C(F)(F)F)c2)cc1	-17.3%	?
COc1cc(NC(=O)CCCNC(=O)c2ccc(Cl)cc2)cc(OC)c1	-16.4%	0.4%
Cc1cc(C)c2cccc(N)c2n1	-3.5%	-20.3%

(more compounds)
SMILES	VACV Venus inh	VACV mCherry inh
COC(=O)c1sc(S(=O)(=O)Oc2ccccc2NC(C)=O)c(C(=O)OC)c1C	-24.1%	-17.1%
CCc1nnc2c(N(C)C)nc3ccccc3n12	-10.0%	i
CC1c2cc3c(cc2CCN1S(=O)(=O)c1ccccc1)OCCCO3 (stereo not drawn)	-9.3%	i
COCCNC(=O)C(=O)NCC1OCCCN1S(=O)(=O)c1cccs1 (stereo not drawn)	-1.9%	i
O=C(N[C@@H]1c2ccccc2CC[C@@H]1OCc1ccccc1)c1ccc(C(F)(F)F)cc1	-3.2%	i
CCc1ccc(CNC(=O)c2ccc3c(c2)c(C)c(C)n3Cc2ccccc2)cc1	-7.5%	-9.6%
CC1=C(C(=O)Nc2ccccn2)C(c2ccc(Br)cc2)NC(=S)N1 (stereo not drawn)	-19.2%	?
COC(=O)/C(=C\Nc1ccccc1)NC(=O)c1ccc(Cl)cc1Cl	-11.7%	.
O=C(Nc1ccc(F)cc1)NC1CCCCCCC1	-13.6%	i
Cc1ccccc1N1CN(Cc2ccco2)CNC1=S	-18.6%	-13.3%
COc1cc(NC(=O)N2CCC(CN3CCCC3)CC2)cc(OC)c1OC	-7.0%	-5.3%
CCOC(=O)N1CCN(Cc2nc3cc(NC(=O)c4ccccc4OC)ccc3n2C(C)C)CC1	?	?
O=C1c2ccccc2C(=O)N1c1ccc(Cc2ccncc2)cc1	11.0%	-4.7%
O=C(NNC(=O)c1cccnc1)c1ccncc1	-3.6%	-20.9%
Cc1ccc(Cl)cc1NC(=O)Cn1c(=O)n(CCCS(=O)(=O)C2CCCCC2)c(=O)c2ccccc21	4.6%	-4.5%
Cc1cc(C)cc(NC(=O)Nc2cc(S(=O)(=O)N(C)C)ccc2C)c1	-6.2%[7.34 µM]	i[7.34 µM]
CCCCc1nc2ccccc2c(NC(=O)CN2CCN(C)CC2)c1CCC	-10.0%	-2.9%
CC1CCCN(C(=O)Cn2c(=O)n(CC3CCC(C(=O)NC(C)C)CC3)c(=O)c3sccc32)C1 (stereo not drawn)	0.3%	-2.3%
CC(C)(C)c1ccc(/C=C(\C#N)C(=O)NC2CC2)cc1	3.7%	-10.7%
N#C[C@]1(S(=O)(=O)c2ccccc2)C[C@@H]2ON=C(c3cccc(Br)c3)[C@@H]2C1	?	?
CCOC(=O)N1CCc2c(sc3c2c(=O)n(-c2ccc(CC)cc2)c(=O)n3Cc2cc(C)ccc2C)C1	-8.6%	-13.3%
CCOC(=O)c1nc(Nc2ccccc2OC)c2ccccc2n1	32.9%[activator]	19.5%
CC(=O)N(O)CCCCCNC(=O)CCC(=O)N(O)CCCCCNC(=O)CCC(=O)N(O)CCCCCNC(=O)CCC(=O)O	-6.3%	?
Cc1cccc(C)c1NC(=O)C1C(c2ccc3c(c2)OCO3)=Nc2ccccc2N1C(=O)c1cccc2ccccc12 (stereo not drawn)	-17.9%	?
COc1ccc(NC(=O)CCc2nc3c(C)nn(-c4ccc(C)cc4)c3n(C)c2=O)cc1	-6.8%	-3.2%
COc1ccc(NC(=O)C(c2ccccc2)N(C)C(=O)c2ccc(=O)[nH]c2)cc1 (stereo not drawn)	-6.2%	-20.1%
CC(C)C(=O)N1CCN(C2=NS(=O)(=O)c3ccccc32)CC1	-4.5%	-9.3%
Cc1cc(C)n(S(=O)(=O)c2ccc(C)c(C)c2C)n1	-10.7%	-21.0%
COc1ccc(NC(=O)C2CCN(S(=O)(=O)c3ccc4c(c3)CCCC(=O)N4)CC2)cc1OC	2.6%	2.4%
Cc1cc2oc(C(=O)Nc3ccc(S(N)(=O)=O)cc3)cc(=O)c2cc1C	8.0%	-0.1%
CC(CNC(=O)c1cc(-c2ccccc2)n[nH]1)c1ccccc1 (stereo not drawn)	-10.4%	-8.6%
CC(C)C[C@H]1CN([C@@H](CC(C)C)CN2CCC[C@H]2CN2C(=O)C(=O)NC[C@@H]2Cc2ccc(O)cc2)C(=O)C(=O)N1CCc1ccccc1	-6.4%	-17.1%
C=CCC1NS(=O)(=O)OC(CCc2ccccc2)C1O (stereo not drawn)	-8.5%	i
